MLL AF4-AF9 inh: blocks AF4 peptide binding to human AF9 | 350,000 compounds, 0.47% hits | inhibition, % at 10 µM | AlphaScreen, biotin-AF4 peptide binding to FLAG-AF9 | P42568;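 active means every replicate reaching a set inhibition limit, whatever the replicate mean, cut at about 25% in these data; inconclusive means mean inhibition reaches that limit but some replicates miss it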;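 further: 0% = plate neutral control median and 100% = total signal loss; the record names both 10 and 1 µM as test concentration; the first replicate is given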
Target sequence (P42568 whole entry, looked up): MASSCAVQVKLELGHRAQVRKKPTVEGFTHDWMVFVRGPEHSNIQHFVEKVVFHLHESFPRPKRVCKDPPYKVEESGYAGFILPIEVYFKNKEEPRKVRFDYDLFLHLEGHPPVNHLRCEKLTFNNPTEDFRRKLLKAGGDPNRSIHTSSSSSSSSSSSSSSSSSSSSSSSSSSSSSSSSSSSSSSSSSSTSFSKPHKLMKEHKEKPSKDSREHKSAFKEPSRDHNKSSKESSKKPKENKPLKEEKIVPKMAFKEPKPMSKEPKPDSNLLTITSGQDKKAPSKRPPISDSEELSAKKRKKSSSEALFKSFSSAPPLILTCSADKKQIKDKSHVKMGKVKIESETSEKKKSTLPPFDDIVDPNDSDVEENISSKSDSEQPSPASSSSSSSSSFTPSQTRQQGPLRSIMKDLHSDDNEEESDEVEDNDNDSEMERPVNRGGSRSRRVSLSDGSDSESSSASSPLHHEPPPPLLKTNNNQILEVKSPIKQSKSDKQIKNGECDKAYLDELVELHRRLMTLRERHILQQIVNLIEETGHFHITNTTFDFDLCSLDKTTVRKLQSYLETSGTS
RanGTP-Impb inh: inhibitors of RanGTP-importin-beta interaction, primary screen, biochemical, FRET, CFP-Ran, YFP-importin-beta, homogeneous. cell-free CFP-Ran/YFP-importin-beta FRET ratio. inhibition, % (concentration not given with the values). 300,000 compounds, 1.1% hits. AID 2216;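 active means most replicates above 15%; inconclusive means exactly half above 15%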;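 further: 0% = DMSO wells and 100% = Ran loaded with GDP instead of GTP; wells of about 40 µL received 100 nL stock; the first replicate is given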
T cruzi inh: T. cruzi replication inhibition. AID 1885. 300,000 compounds, 1.4% hits. T. cruzi beta-gal in NIH3T3, luminescence, 90 h. inhibition, % (test concentration not listed);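 active means mean inhibition across valid replicates above about 55%, limit read from the data; inconclusive means mean below that limit but half or more replicates reach it; inactive means mean below it, under half of replicates reach it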;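 further: signal also drops with host cell toxicity which is not excluded here; 0% = plate median of DMSO wells and 100% = zero luminescence signal; higher percent means less beta-gal luminescence so fewer parasites; stock transfer was 50 nL into about 50 µL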
Calb FLC: affects C. albicans growth with fluconazole | C. albicans CaCi-2 (fluconazole-resistant clinical isolate) + fluconazole, Alamar Blue growth, 48 h | 300,000 compounds, 0.57% hits | growth inhibition, % (test concentration not listed) | AID 1979;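 active means most replicates above 75%; inconclusive means exactly half above 75%; inactive means most below 75%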;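 further: all wells also contain fluconazole at 8 µg/ml as a sub-toxic cotreatment; 0% = median of DMSO wells and 100% = median of geldanamycin control wells; wells of about 8 µL received 7.5 nL stock; the first replicate is given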
Vif A3G: inhibitors of Vif binding to APOBEC3G peptide, primary screen, biochemical, TR-FRET, GST-Vif 1-94, biotin-A3G peptide, dose response retest (AID 1117319); TR-FRET GST-Vif / biotin-A3G peptide binding; higher % means a stronger effect; test concentration not given here; strong numbers were not always called active; inhibition, %, or IC50 in µM where a hit was titrated; 260,000 compounds, 0.57% hits;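 active means above the screen mean plus three standard deviations and confirmed in dose response; inconclusive means results disagree or hit not tested in dose response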;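 further: Vif residues 1-94 fused to GST binding biotinylated APOBEC3G peptide 110-148; 0% = full assay without inhibitor and 100% = GST in place of GST-Vif; retest series ran down from 100 µM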
A1 inh: inhibitors of the anti-apoptotic protein A1, read as caspase activation; caspase activation, % (concentration not given with the values); 330,000 compounds, 0.066% hits; MEF A1-2A-BIM cells, Caspase-Glo 3/7 luminescence, 3 h; percent of clofoctol response, vehicle zero; AID 2462;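 active means over half of replicate activation scores above 10%, or exactly half above 10 with the replicate mean above 10; inconclusive means replicate mean below 10 yet half the replicates above 10; inactive means over half of replicates below 10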;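 further: wells of about 30 µL received 50 nL stock; many hits fall short of the cut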
Beta cell apopt: blocks beta cell apoptosis. 300,000 compounds, 0.8% hits. INS-1E cytokine-induced death, ATP luminescence, 48 h; percent of positive-control rescue, neutral wells zero. protection from apoptosis, % (concentration not given with the values);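 active means all replicates at 75% or more, or half of them and the mean; inconclusive means half reach 75% but not the mean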;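 further: 0% = cytokine-treated negative control wells and 100% = positive control rescue; higher means more ATP so stronger rescue from cytokine killing; wells of about 40 µL received 100 nL stock; the first replicate is given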
LANA-H2B inh: blocks KSHV LANA binding to histone H2A/H2B. inhibition, % (test concentration not listed). cell-free LANA-H2A/H2B peptide, fluorescence polarization. 320,000 compounds, 0.6% hits. AID 2629; in the data active means inhibition mostly above about 10%, no sharp cut-off; inactive means mostly below about 6.7%;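 further: stock transfer was 7.5 nL into about 10 µL; 0% = median of vehicle wells and 100% = median of positive control wells; one replicate is shown; the record names a cut of 25% in any replicate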
* = called active by the depositor; & = joins results of further samples.

How did O=C(O)c1ccccc1Oc1ccc(Oc2ccccc2)cc1 do in these assays?
MLL AF4-AF9 inh: 0.0; RanGTP-Impb inh: -1.3; T cruzi inh: -4.3; Calb FLC: -4.3; A1 inh: -0.1; Beta cell apopt: -2.3; LANA-H2B inh: 3.3

How did COc1ccc(N2C(=O)NC(NS(=O)(=O)c3ccccc3)(C(F)(F)F)C2=O)cc1 (stereo not given) do in these assays?
MLL AF4-AF9 inh: -1.1; RanGTP-Impb inh: 2.7; T cruzi inh: -1.1; Calb FLC: -7.9; Vif A3G: 4.2%; A1 inh: -0.2; LANA-H2B inh: -17.2

How did O=C(CN1C(=O)c2ccc([N+](=O)[O-])cc2C1=O)NCc1ccc(C(=O)O)cc1 do in these assays?
MLL AF4-AF9 inh: -10.4; RanGTP-Impb inh: -0.1; T cruzi inh: -0.6; Calb FLC: 2.6; A1 inh: -0.1; Beta cell apopt: -3.6; LANA-H2B inh: 5.5

Results for COc1ccc(OC(=O)COc2cccc(C)c2)cc1 ?
MLL AF4-AF9 inh: 7.6; RanGTP-Impb inh: 2.1; T cruzi inh: -3.4; Calb FLC: 24.1; A1 inh: 0.2; Beta cell apopt: -5.7; LANA-H2B inh: -2.6

How did CCn1c(SCc2cccnc2)nnc1-c1c[nH]c2ccccc12 do in these assays?
MLL AF4-AF9 inh: 0.1; RanGTP-Impb inh: 4.8; T cruzi inh: -8.7; Calb FLC: -7.1; Vif A3G: 1.0%; A1 inh: 0.0; Beta cell apopt: -1.1; LANA-H2B inh: 2.0

What do the screens show for `CCOc1ccc(NC(=O)CSc2nnc(-c3ccccn3)n2N)cc1`?
RanGTP-Impb inh: 2.7; T cruzi inh: -2.9; Calb FLC: -2.8; Vif A3G: -2.1%; A1 inh: -0.3; Beta cell apopt: 1.2; LANA-H2B inh: -1.4

How did COc1ccc(CC(=O)NCc2nnc(SCC(=O)c3ccc(OC)cc3)n2C)cc1 do in these assays?
MLL AF4-AF9 inh: -5.3; RanGTP-Impb inh: -0.5; T cruzi inh: 5.4; Calb FLC: -13.5; Vif A3G: inconclusive; A1 inh: -0.3; Beta cell apopt: -2.3; LANA-H2B inh: -3.6

Results for Cc1c(C(=O)N2CCOCC2)sc(NC(=O)c2ccc3c(c2)OCO3)c1C#N ?
RanGTP-Impb inh: 3.6; T cruzi inh: -7.1; Calb FLC: 47.1; Vif A3G: 15.8%; A1 inh: -0.2; LANA-H2B inh: 1.0

Results for COCCOC(=O)C1=C(C)NC(=O)NC1c1c(OC)ncnc1OC (stereo not given) ?
RanGTP-Impb inh: 1.3; T cruzi inh: -2.5; Calb FLC: -8.8; Vif A3G: 1.5%; A1 inh: -0.6; Beta cell apopt: -2.5; LANA-H2B inh: -3.0

Results for COC(=O)c1sc(-c2ccccc2)cc1NC(=O)C1CC1 ?
MLL AF4-AF9 inh: 8.1; RanGTP-Impb inh: -1.6; T cruzi inh: 4.6; Calb FLC: 24.2; Vif A3G: 1.8%; A1 inh: -0.6; Beta cell apopt: 15.4; LANA-H2B inh: 0.1

Results for CCc1ccc(NC(=O)CSc2nc3cc(C(=O)OC)ccc3c(=O)n2CC2CCCO2)cc1 (stereo not given) ?
RanGTP-Impb inh: 3.3; T cruzi inh: 21.2; Calb FLC: -6.4; Vif A3G: inconclusive; A1 inh: 1.4; Beta cell apopt: 4.6; LANA-H2B inh: 1.0

What do the screens show for `O=C1/C(=C/c2ccncc2)CCC/C1=C\c1ccncc1`?
MLL AF4-AF9 inh: -9.3; RanGTP-Impb inh: -6.1; T cruzi inh: 13.8; Calb FLC: 12.0; Vif A3G: 9.3%

How did Cc1nc(SC(C)C(=O)Nc2cccc(C(F)(F)F)c2)c2c(C)c(C(=O)O)sc2n1 (stereo not given) do in these assays?
MLL AF4-AF9 inh: -13.7; RanGTP-Impb inh: -1.7; T cruzi inh: 7.1; Calb FLC: -1.3; A1 inh: 0.7; Beta cell apopt: 1.1; LANA-H2B inh: 1.3

How did COc1cccc(-c2csc(N3CCN(C(=S)Nc4cccc(Cl)c4)CC3)n2)c1 do in these assays?
MLL AF4-AF9 inh: -0.6; RanGTP-Impb inh: -0.4; T cruzi inh: 19.5; Calb FLC: -3.4; Vif A3G: 0.6%; A1 inh: 0.2; Beta cell apopt: -3.1; LANA-H2B inh: -3.3

What do the screens show for `CC(=O)Nc1ccc(OCC(O)Cn2ccnc2C)cc1` (stereo not given)?
MLL AF4-AF9 inh: 3.1; RanGTP-Impb inh: 4.8; T cruzi inh: 7.2; Calb FLC: 14.7; A1 inh: 0.1; Beta cell apopt: -3.1; LANA-H2B inh: -0.8

What do the screens show for `CC(C)(C)c1ccc(NC(=S)NCc2cccnc2)cc1`?
RanGTP-Impb inh: 0.1; T cruzi inh: 6.2; Calb FLC: 3.0; Vif A3G: 76.8%; A1 inh: 0.0; Beta cell apopt: 0.7; LANA-H2B inh: 1.7

How did O=C(CC1CCCCC1)N1CCCC(c2nc(-c3ccc(S(=O)(=O)N4CCCC4)cc3)no2)C1 (stereo not given) do in these assays?
MLL AF4-AF9 inh: 3.6; RanGTP-Impb inh: 0.3; T cruzi inh: 0.1; Calb FLC: -4.2; Vif A3G: 10.3%; A1 inh: -0.3; Beta cell apopt: 39.0; LANA-H2B inh: -6.2

How did CC(C)(C)CN1CCC(Oc2cccc(C(=O)N3CCNC(=O)C3(C)C)c2)CC1 do in these assays?
MLL AF4-AF9 inh: -1.5; RanGTP-Impb inh: 0.9; T cruzi inh: -5.9; Calb FLC: -9.2; A1 inh: 1.5; Beta cell apopt: -1.5; LANA-H2B inh: 4.1

How did CC(=O)c1ccc(N2CCN(C(=O)CCCn3c(=S)[nH]c4cc5c(cc4c3=O)OCO5)CC2)cc1 do in these assays?
Vif A3G: 0.0%; A1 inh: -0.5; Beta cell apopt: 2.4; LANA-H2B inh: 0.6

What do the screens show for `COc1ccc(-n2cc(-c3ccccc3)c3c(N4CC(C)OC(C)C4)ncnc32)cc1` (stereo not given)?
MLL AF4-AF9 inh: 10.8; RanGTP-Impb inh: -1.2; T cruzi inh: 7.3; Calb FLC: 5.5; Vif A3G: -2.4%; A1 inh: 0.6; Beta cell apopt: 9.4; LANA-H2B inh: 7.0

How did CCCCCCC(=O)NNC(=O)CC(=O)Nc1ccccc1C(=O)O do in these assays?
RanGTP-Impb inh: 7.3; T cruzi inh: 10.3; Calb FLC: 1.8; A1 inh: -0.3; Beta cell apopt: -2.9; LANA-H2B inh: -3.5

What do the screens show for `N#Cc1c(N)n(CCNC(=O)c2ccc(Cl)cc2)c2nc3ccccc3nc12`?
RanGTP-Impb inh: 27.9*; T cruzi inh: -1.4; Calb FLC: 16.3; Vif A3G: 19.9%; A1 inh: -0.4; Beta cell apopt: -2.8; LANA-H2B inh: -1.8

What do the screens show for `O=C(NNC1CC(=O)N(c2ccc(F)cc2)C1=O)c1cccnc1` (stereo not given)?
MLL AF4-AF9 inh: 0.2; RanGTP-Impb inh: -3.6; T cruzi inh: 0.7; Calb FLC: 2.0; A1 inh: 0.0; Beta cell apopt: -4.3; LANA-H2B inh: -4.7

How did CCOC(=O)COc1ccc2c(=O)c(-c3ccccc3OC)coc2c1 do in these assays?
MLL AF4-AF9 inh: -6.7; RanGTP-Impb inh: 6.9; T cruzi inh: -10.0; Calb FLC: 7.1; Vif A3G: 2.7%; A1 inh: 0.5; Beta cell apopt: 2.8; LANA-H2B inh: -2.5

How did O=C(CCc1nnc2ccc(NCc3ccco3)nn12)Nc1cc(F)ccc1F do in these assays?
MLL AF4-AF9 inh: 1.3; RanGTP-Impb inh: 1.1; T cruzi inh: -12.6; Calb FLC: -7.6; A1 inh: 1.9; Beta cell apopt: 0.0; LANA-H2B inh: 2.8

How did c1ccc(OCCCn2ccnc2)cc1 do in these assays?
MLL AF4-AF9 inh: -1.1; RanGTP-Impb inh: 7.2; T cruzi inh: -17.4; Calb FLC: 4.8; Vif A3G: -2.0%; A1 inh: -0.2; Beta cell apopt: -2.7; LANA-H2B inh: -0.6

How did O=C(CN1CCN(c2ccccn2)CC1)Nc1cc(C(F)(F)F)ccc1Cl do in these assays?
RanGTP-Impb inh: -1.1; T cruzi inh: 13.6; Calb FLC: -3.1; Vif A3G: -6.6%&2.1%; A1 inh: -0.2; Beta cell apopt: 0.2; LANA-H2B inh: 1.6

What do the screens show for `O=C(CSCc1cccc(Cl)c1)Nc1ccccc1-c1ccccc1`?
MLL AF4-AF9 inh: inconclusive; RanGTP-Impb inh: 1.8; T cruzi inh: 5.7; Calb FLC: inconclusive; A1 inh: 0.3; Beta cell apopt: -3.8; LANA-H2B inh: -3.3

How did Cc1sc2ncn(CC(=O)NCCCC(=O)Nc3ccc(C(C)C)cc3)c(=O)c2c1C do in these assays?
MLL AF4-AF9 inh: 0.0; RanGTP-Impb inh: -0.8; T cruzi inh: -2.9; Calb FLC: 0.0; Vif A3G: 4.2%; A1 inh: 0.3; Beta cell apopt: 9.9; LANA-H2B inh: -3.0

How did COc1ccc(NC(=O)c2sc3ncn(CC(=O)N4CCN(c5ccccn5)CC4)c(=O)c3c2C)cc1OC do in these assays?
MLL AF4-AF9 inh: -4.0; RanGTP-Impb inh: -1.0; T cruzi inh: -19.6; Calb FLC: -2.8; A1 inh: -0.4; Beta cell apopt: -6.0; LANA-H2B inh: 8.7

What do the screens show for `CC(=O)N1CCN(C(=O)C(Cc2c[nH]c3ccccc23)NC(=O)c2ccccc2Cl)CC1` (stereo not given)?
MLL AF4-AF9 inh: 3.5; RanGTP-Impb inh: 0.4; T cruzi inh: 0.0; Calb FLC: -4.7; A1 inh: 0.5; Beta cell apopt: -0.2; LANA-H2B inh: -1.0

What do the screens show for `O=C(NCCN1CCOCC1)c1cccc(S(=O)(=O)Nc2ccc(Br)cc2)c1`?
MLL AF4-AF9 inh: 0.2; Vif A3G: -2.9%; A1 inh: 2.0; Beta cell apopt: -1.7; LANA-H2B inh: 5.9

How did O=C(Cc1ccccc1)Nc1ccc(NC(=O)c2ccco2)cc1 do in these assays?
MLL AF4-AF9 inh: 1.0; RanGTP-Impb inh: 0.4; T cruzi inh: 1.3; Calb FLC: 0.2; A1 inh: 1.5; Beta cell apopt: 4.1; LANA-H2B inh: 0.7

What do the screens show for `COc1ccc2cc(C#N)c(SCC(=O)N3CC(=O)Nc4ccccc43)nc2c1`?
RanGTP-Impb inh: inconclusive; T cruzi inh: 0.2; Calb FLC: 2.1; Vif A3G: -183.9%; A1 inh: 1.5; Beta cell apopt: -8.4; LANA-H2B inh: -4.3

Results for Cc1ccc(NC(=O)CCC(=O)NNC(=O)c2ccco2)c(C)c1 ?
RanGTP-Impb inh: 1.6; T cruzi inh: 2.3; Calb FLC: -2.1; Vif A3G: 2.9%; A1 inh: 1.0; Beta cell apopt: -6.1; LANA-H2B inh: 1.4

From PubChem BioAssay
